High-throughput results from PubChem BioAssay.
ClpP mod: qHTS Assay for Activators of ClpP | AID 651965, 2013 | Potency, µM (doses to about 57.5 µM), inactives show at the top dose activity change, negative = active | actives 1.9% (n = 340,000) | purified B. subtilis ClpP, FRET peptide cleavage, 20 min; active = well fitted falling curve with a large enough effect; inconclusive = small, poorly fitted or top-dose-only effect; inactive = no such curve, though single readings can be large or run the other way; also: potency is read from the fitted curve at half-maximal effect; the source files actives as falling curves though it sought activators and does not explain the sign; nearly all actives have a fitted effect of over 65% in size; many hits overshoot -100%
Target sequence (P80244 whole entry, looked up): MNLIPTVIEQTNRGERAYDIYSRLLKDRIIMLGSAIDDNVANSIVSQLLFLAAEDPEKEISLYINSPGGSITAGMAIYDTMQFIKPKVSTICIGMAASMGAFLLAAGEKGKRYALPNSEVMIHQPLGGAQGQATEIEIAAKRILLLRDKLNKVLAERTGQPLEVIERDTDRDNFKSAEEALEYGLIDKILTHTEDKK
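FRET quenching reversal measured ClpP activation: 10 microg/mL B. subtilis ClpP at pH 8 with the FRET-FV decapeptide, read at 430 nm after 320 nm excitation. The 20-min minus 0-min signal was scaled between DMSO/no-enzyme wells and ADEP (5.8 microM final).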
gsp antagonist: qHTS for Antagonists of gsp, the Etiologic Mutation Responsible for Fibrous Dysplasia/McCune-Albright Syndrome: qHTS. actives 0.4% (n = 340,000). Potency, µM (doses to about 76.9 µM), for the others: at the highest dose activity change, negative = inhibition, usual class: inhibitors. gsp-mutant cells, cAMP HTRF, 30 min; control for the full effect not named in the record; active = falling curve of any shape with a large fitted effect; inconclusive = falling curve, mostly with a smaller effect; inactive = flat or rising curve; cell line not stated here;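 also: intracellular cAMP measured with PDE inhibitor Ro 20-1724 present during compound exposure; potency is read from the fitted curve at half-maximal effect; % is scaled to controls: 0 for no effect and ±100 for the full control effect; nearly all actives have a fitted effect of over 65% in size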
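G418-selected cells were plated in DMEM/10% FBS for 16-24 h at 37C, then treated with compounds plus the PDE inhibitor […] (300 uM solution added) for 30 min at 37C. Intracellular cAMP was measured by HTRF after 30 min lysis at room temperature.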
D2 ag: Beta-Arrestin HTS for Positive Allosteric Modulators of the Human D2 Dopamine Receptor: Agonists. D(2) dopamine receptor (Homo sapiens), P14416. DiscoveRx PathHunter D2 beta-arrestin, luminescence, 90 min; 100% = 57 uM dopamine signal. activation, % (no concentration beside the values). actives 0.084% (n = 360,000). AID 624465, 2012; in the data active = activation above about 40%; inconclusive = about 15% to 40%; inactive = below about 15%; also: compound concentration not given in the record; the text of the record calls up to 30% inactive
Target sequence (P14416 whole entry, looked up): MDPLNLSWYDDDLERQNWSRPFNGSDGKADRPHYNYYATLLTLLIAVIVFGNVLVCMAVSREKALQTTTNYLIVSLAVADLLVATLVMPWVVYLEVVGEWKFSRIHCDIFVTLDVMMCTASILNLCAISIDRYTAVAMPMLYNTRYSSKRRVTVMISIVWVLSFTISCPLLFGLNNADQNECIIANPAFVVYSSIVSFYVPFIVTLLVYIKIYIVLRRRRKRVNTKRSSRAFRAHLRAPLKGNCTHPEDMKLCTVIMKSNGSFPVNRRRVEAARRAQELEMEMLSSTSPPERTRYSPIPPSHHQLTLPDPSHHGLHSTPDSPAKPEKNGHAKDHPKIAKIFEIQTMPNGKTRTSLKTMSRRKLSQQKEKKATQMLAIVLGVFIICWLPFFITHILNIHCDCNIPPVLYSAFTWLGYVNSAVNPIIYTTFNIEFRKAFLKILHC
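Agonist mode: compounds alone added to overnight-plated D2 PathHunter cells for 90 min at 37 C, with 57 uM final dopamine (EC100) defining full response. Beta-arrestin recruitment detected by chemiluminescent reagent, read after 1 h at ambient temperature.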
Sfp inh: qHTS Assay for Inhibitors of Bacillus subtilis Sfp phosphopantetheinyl transferase (PPTase); actives 3.5% (n = 310,000); Potency, µM, for inactives: max response, negative = inhibition, usual class: inhibitors; AID 1490, 2009; Biochemical Sfp PPTase activity, qHTS; active = well fitted inhibition curve with a large enough effect; inconclusive = small, poorly fitted or top-dose-only effect, or another doubt; inactive = no such curve, though single readings can be large or run the other way;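 also: the enzyme is Sfp with the accession as filed and its product quenches rhodamine fluorescence; potency is read from the fitted curve at half-maximal effect; 0% = enzyme reaction without inhibitor and -100% = no enzyme wells; top concentration of the series not given in the record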
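Step 1, compound plus 15 nM Sfp-PPTase, 15 min, room temperature. Step 2, add rhodamine-CoA (5 uM) and BHQ-2-YbbR (12.5 uM). Step 3, read 525/598 nm fluorescence at 0 and 30 min.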
PINK1 expr mod: A Quantitative High throughput Screen to Identify Chemical Modulators of PINK1 Expression; AID 624263, 2012; Potency, µM (series often up to 76.6 µM), inactives show top-dose activation (PINK1 increase), usual class: activators; actives 0.2% (n = 410,000); PINK1 immunofluorescence, high-content cytometry, 24 h; active = well fitted activation curve with a large enough effect; inconclusive = small, poorly fitted or top-dose-only effect; inactive = flat fitted curve, though single readings scatter; cell line not stated here;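 also: potency is read from the fitted curve at half-maximal effect; % of control where 0% means no effect; nearly all actives have a fitted effect of over 65% in size; a mitochondrial uncoupler was the plate control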
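A stable cell line was treated with compounds at 5 concentrations for 24 hours, with CCCP as control. PINK1 levels and mitochondrial localization were measured by immunofluorescence with mitochondrial, cell and nuclear markers after fixation, read by laser-scanning cytometry.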
gsp ag: qHTS for Agonist of gsp, the Etiologic Mutation Responsible for Fibrous Dysplasia/McCune-Albright Syndrome: qHTS. gsp mutant cells, cAMP HTRF, 30 min; control for the full effect not named in the record. Potency, µM (titrated, usually from 76.9 µM), for inactives: at the top dose activation (cAMP increase), usual class: activators. actives 0.13% (n = 340,000). AID 624287, 2012; active = well fitted activation curve with a large enough effect; inconclusive = small, poorly fitted or top-dose-only effect, or another doubt; inactive = no such curve, though single readings can be large or run the other way; cell line not stated here;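 also: phosphodiesterase inhibitor Ro 20-1724 added with compounds to block cAMP breakdown; potency is read from the fitted curve at half-maximal effect; nearly all actives have a fitted effect of over 60% in size; about a fifth of the inactives were tested at one dose only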
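Cells in DMEM/10% FBS with G418 were pretreated with compounds in DMSO plus […] (300 uM stock) for 30 min at 37C. cAMP was measured by HTRF (cAMP-d2 plus anti-cAMP antibody-K) after 30 min at room temperature.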
Menin-MLL FL inh: qHTS Assay for Inhibitors Targeting the Menin-MLL Interaction in MLL Related Leukemias: Competition With Fluorescein Labeled MLL-derived Peptide. Fluorescence polarization, fluorescein-MLL peptide displacement from menin. FP activity change, % at 61.4 µM. 290,000 tested, under 10 active; inconclusive = falling polarisation curve, or a change in total fluorescence; inactive = total fluorescence flat and polarisation flat or rising; no compound was filed as active; the % refers to the polarisation; negative = inhibition;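 also: % of control where 0% means no effect; inhibitors lower the polarisation; unlabelled MLL peptide was the positive control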
Starred values were filed as active, the others as inactive; ? = inconclusive; nt = no result given; & = joins results of further samples; [ ] = another dose, or the depositor's remark. Random draw from the library. About 5.1% of those tested had a hit in this group.

Compound	ClpP mod	gsp antagonist	D2 ag	Sfp inh	PINK1 expr mod	gsp ag	Menin-MLL FL inh
Cc1cc2c(c(N3CCOCC3)n1)C(=O)OC2	-22%	8%	-3.3	2%	-2.1%	15%	-1.1
O=C1c2ccccc2COc2ccc(O)cc21	-0.3%	2%	-3.5	5%	9.4%	-40%[inhibitor]	1.6
CCc1nccn1S(=O)(=O)c1cc(OC)ccc1OC	?	5%	3.5	12%	5.6%	?	0.7
CCCCCCOc1ccc(/C=C/C(=O)N2CCOCC2)cc1OC	-12%	-8%	1.5	6%	0.7%	-29%	-1.1
COc1ccc(CN(C)CC(=O)Nc2ccccc2C(=O)NC2CC2)cc1F	1.6%	34%	-3.4	nt	0.4%	10%[15.4 µM]	nt
CCOCCc1nnc(NC(=O)Cc2c(F)cccc2Cl)s1	-0.4%	-3%	8.6	9%	-0.4%	24%	-5.4
Cc1ccc(OCC(=O)Nc2cccc3c2CCCC3)cc1C	1.3%	-4%	1.4	nt	3.5%	20%	nt
Cc1ccc(Cn2nnc3c(=O)n(CC(=O)NCc4ccccc4)cnc32)cc1	-0.6%	12%	-1.1	7%	7.4%	-51%[inhibitor]	4.1
CC(=O)c1cccc(NC(=O)CN2C=NS(=O)(=O)c3ccc(C)cc32)c1	0.6%&1.0%	-1%	-1.4	0%	0.7%&-0.7%	?	nt
CCc1ccc2nc(/N=C(\N)NC(=O)c3ccccc3)nc(C)c2c1	-1.2%	-4%	-3.5	?	3.9%	-19%[15.4 µM]	3.0
COc1cccc(-n2c(O)c(C=NCc3ccccn3)c3ccccc3c2=O)c1	0.7%	0%	-5.5	4%	1.4%	1%[15.4 µM]	1.0
Cc1c(NC(=S)NC(NC(=O)C(C)C)C(Cl)(Cl)Cl)c(=O)n(-c2ccccc2)n1C (stereo unspecified)	-0.1%	10%	-3.1	2%	-1.9%	-29%	3.6
CCN(C(=O)COC(=O)c1c(C)c(-c2ccccc2)nc2ccccc12)C1CCS(=O)(=O)C1 (stereo unspecified)	-5.8%	-3%	1.9	0%	9.2%	-17%	-3.2
Oc1ccc(N=Nc2ccc3c(c2)OCCO3)c2cccnc12	nt	7%	-14	-13%	7.9%	-15%[15.4 µM]	-0.5
O=C1c2cccc3cccc(c23)C(=O)N1CC1CCN(CC(O)COc2ccc3ccccc3c2)CC1 (stereo unspecified)	-10.0%	-31%	3.7	8%	-1.3%	0%	1.4
COc1ccc(Cl)cc1-c1nc(SCC(=O)N(C)C)n[nH]1	0.0%	-3%	-3.2	18%	4.0%	2%[15.4 µM]	0.8
O=C(NCc1ccc(Cl)s1)C1CCC(=O)N(CCc2cccc(F)c2)C1 (stereo unspecified)	-0.3%	7%	-0.6	13%	0.4%	9%	-5.7
CN(C)CCCn1c2c(c(SCC(=O)Nc3ccc4c(c3)OCO4)nc1=O)CCCC2	0.8%	14%	-2.0	nt	7.2%	-7%	nt
CSc1nc2ccccc2s1	1.3%	6%	-5.0	-4%	0.8%	nt	0.3
O=S(=O)(c1cccc(S(=O)(=O)N2CCOCC2)c1)N1CCCCCC1	0.9%	3%	8.3	4%	1.3%	-8%	-3.0
O=C(C1=C(O)C(=O)N(c2nc3ccc(Cl)cc3s2)C1c1ccco1)c1ccco1 (stereo unspecified)	-1.6%	?	0.9	nt	-1.4%	6%	nt
CCOC(=O)c1cc(NC(=O)c2cccnc2)cc(C(=O)OCC)c1	-2.8%	0%	0.9	11%	3.7%[38.3 µM]	?	0.0
CN(C(=O)c1cc(-c2ccccc2)on1)C1CCCCC1	nt	-7%	-5.3	-10%	2.5%	3%[15.4 µM]	-0.9
O=C(NCCc1ccccc1)c1cccc(S(=O)(=O)NCc2ccccc2)c1	-1.1%	4%	-3.2	nt	1.2%	-8%	nt
CCOC(=O)C(=CNc1cc(C)ccc1C)C(=O)OCC	-3.2%	35µM*	9.3	8%	6.7%	0%	5.1
O=C(CN(c1ccccc1F)S(=O)(=O)c1ccccc1)N1CCCCCC1	-0.7%	18%	-1.4	13%	0.7%	2%	0.5
CCn1c(C)nc2cc(S(=O)(=O)N3CCCC3)ccc21	0.2%	?	1.8	13%	-0.5%	1%	5.4
COc1ccc(C(=O)NCC(C)CN(C)C)cc1 (stereo unspecified)	-0.5%	5%	-0.3	3%	0.9%	-39%[inhibitor]	3.5
O=C(CSc1ccc(Cl)cc1)N1CCN(c2c(Cl)cccc2[N+](=O)[O-])CC1	-1.0%	-24%	-2.2	7%	-1.3%	12%	6.5
O=C(c1ccc(F)cc1)C1CCN(C(=O)NCc2ccccc2)CC1	5.5%	-10%	1.5	13%	-0.4%	-26%	-1.4
CCOc1ccccc1N1CCN(C(=O)c2cn(CC3CCCCC3)nn2)CC1	1.6%	11%	-3.5	0%	2.6%	-5%	nt
Cc1ccc(-c2csc3ncn(CC#N)c(=O)c23)cc1C	nt	-16%	-2.2	7%	0.5%	8%	1.9
CCn1cc(CNC(=O)C2CCC(=O)N(Cc3ccccc3F)C2)cn1 (stereo unspecified)	nt	12%	-2.5	15%	3.1%	-30%	-0.9
O=[N+]([O-])c1cccc(S(=O)(=O)N2CCCCCC2)c1	0.8%	12%	0.4	2%	1.8%	4%	nt
COc1ccc(C(=O)N/C(=C\c2ccccc2)C(=O)Nc2ccc(C(=O)O)cc2)cc1	-0.7%	5%	-4.7	13%	1.7%	-7%	0.4
Cc1c(C(=O)NCc2ccco2)oc2ccccc12	nt	4%	-0.4	7%	4.2%	8%[15.4 µM]	-1.5
Cn1cc(CC(=O)N2CCN(c3ccccc3F)CC2)c2ccccc21	-21%	4%	-6.5	11%	-0.1%	?	-0.3
CCc1ccc(OCCCCN(C)Cc2ccccc2)cc1	-1.7%	17%	-8.7	-9%	?	-1%	1.9
CN(C)c1ccc(C2CC(=O)OC3=C2C(=O)CC(C)(C)C3)cc1 (stereo unspecified)	nt	-25%	-0.9	-10%	6.9%	11%[15.4 µM]	-6.5
CC(=O)NCCNc1ccnc(-c2ccccc2C)n1	nt	nt	nt	-5%	0.3%	nt	1.4
C=CCOc1ccc(CN(C)CC(O)COc2ccc(CCC(C)=O)cc2)cc1 (stereo unspecified)	nt	16%	-5.6	-26%	1.2%	16%[15.4 µM]	1.4
O=C(O)CCSc1nnc(SCC(=O)NC2CCS(=O)(=O)C2)s1 (stereo unspecified)	-19%	10%	-2.5	nt	0.4%	9%[15.4 µM]	nt
CCCCOc1ccc(C(=O)NCC(=O)NCC2CCCO2)cc1 (stereo unspecified)	-7.9%	16%	-0.7	9%	4.9%	-1%	nt
CC(C)C(=O)Nc1nnc(SCC(=O)NCc2cccs2)s1	1.8%	-8%	-1.4	-9%	1.6%	8%	-3.0
NC(=O)c1ccc(NC(=O)CCN=C2NS(=O)(=O)c3ccccc32)cc1	2.7%	18%	0.9	nt	13%	-2%	nt
Cc1sc2ncnc(SCC(=O)NNC(=O)COc3cccc4ccccc34)c2c1C	-2.8%	6%	1.4	3%	12%[38.3 µM]	?	1.7
NS(=O)(=O)c1ccc(C(=O)Nc2ccc(-c3nc4cccnc4s3)cc2)cc1	3.2%	-5%	-1.6	-9%	3.5%	26%	5.7
COc1cccc(S(=O)(=O)N2CCOCC2)c1	1.4%	8%	1.2	-4%	?	24%	0.2
Nc1nc(-c2ccc3c(c2)NC(=O)CO3)cs1	-0.5%	2%	-2.5	?	-1.7%	0%	0.7
CCCc1nc(N)c(C#N)c(-c2cccnc2)c1CC	-29%	10%	-2.1	-5%	1.1%	-16%	1.8

(next part)
Compound	ClpP mod	gsp antagonist	D2 ag	Sfp inh	PINK1 expr mod	gsp ag	Menin-MLL FL inh
O=C(Nc1ccc(S(=O)(=O)N2CCCCC2)cc1)c1ccncc1	-5.2%	-5%	5.1	8%	-0.7%	19%	2.1
C/C=C/CSc1nc2c(c(=O)[nH]c(=O)n2C)n1C(C)C	1.4%	6%	-1.0	-11%	2.3%	1%	-0.7
Cc1ccc(C(=O)NCC(=O)OCC(=O)Nc2ncc(C(F)(F)F)cc2Cl)cc1	nt	5%	0.2	13%	-0.1%	10%[15.4 µM]	4.9
COc1cc(NC(=O)CSc2ncnc3c2cnn3Cc2ccccc2)cc(OC)c1	1.2%	-4%	-4.0	24%	-0.3%	8%	3.7
Cc1cc(C)nc(NC(=O)CN2C(=O)c3ccccc3S2(=O)=O)n1	-0.9%	13%	-2.7	nt	2.3%	25%	nt
O=C(Cc1ccsc1)Nc1ccccc1F	nt	3%	1.0	15%	3.0%	0%[15.4 µM]	-1.2
Cc1cc(C)c(S(=O)(=O)NCCn2ccc3ccccc32)c(C)c1	-0.8%	-6%	-3.6	17%	0.9%	?	-1.1
CCC(C)N(C(=O)CSc1ncnc2sccc12)C1CCS(=O)(=O)C1 (stereo unspecified)	0.2%	-2%	-1.0	nt	-1.2%	15%	nt
COC(=O)C1=CO[C@@H](C)[C@H]2CN3CCc4c([nH]c5ccccc45)[C@@H]3C[C@H]12	-1.2%	-18%	-7.0	6%&10%	0.2%	nt	?
Cn1c(CNC(=O)c2cccs2)n[nH]c1=S	1.3%	6%	-2.8	-12%	0.8%	-33%[inhibitor]	0.7
